Vaccinia pol inh = vaccinia E9 polymerase processive synthesis inhibitors, primary screen, biochemical, absorbance; in vitro processive DNA synthesis, absorbance read-out; stronger effect = lower value; some inactives read as strong as hits; normalized absorbance, % (test concentration not listed); hit rate 0.94% among 46,000; AID 493162, 2011;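 active = replicate mean up to 90% and picked by the depositor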;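 note: 100% = median of the test wells of a plate; 100 nL library stock went into each well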
Starred values were filed as active, the others as inactive. An excerpt; the hit share may differ from the screen's.

SMILES	Vaccinia pol inh
Cc1ccc(Nc2ncc(C(=O)N3CCCCCC3)c3ccccc23)cc1Cl	100.6
CCn1c2ccccc2c2cc(C=Nc3ccc(Cl)cc3)ccc21	101.9
C=C(Br)Cn1c(CC(C)C)nc2ccccc21	94.1
Cc1cccc(N=C2SCC(=O)N2c2cccc(C)c2)c1	100.2
O=S(=O)(c1ccc(-c2nc3ccccc3s2)cc1)N1CCCC1	119.0
Cc1cccc(NCN2C(=O)CSC2=O)c1C	99.8
COc1ccc(S(=O)(=O)N2Cc3ccccc3CC2C(N)=O)cc1OC (stereo unspecified)	99.8
CCNc1cc(N)[n+](CC)c2n[nH]c(N)c12	92.3
COc1ccc2cc(CCNC(C)=O)c(=O)[nH]c2c1	100.5
Cc1cc(C)c2c(n1)sc1c(N3CCCCC3)ncnc12	102.4
COc1ccc(OC)c(NC(=S)NCc2ccc3[nH]c(C)cc3c2)c1	99.9
COC(=O)c1cccc(Oc2nc(Nc3ccccc3F)nc(N3CCC4C=CC=CC4C3)n2)c1 (stereo unspecified)	100.1
O=C(c1ccc(Cl)cc1)N1CCc2sccc2C1c1ccc(Cl)cc1 (stereo unspecified)	96.1
Cn1c(C(=O)O)c(CC(=O)NCc2cccnc2)c2ccccc21	111.4
COc1ccc(C(=O)COc2ccccc2C(N)=O)cc1	98.7
COc1cc(S(=O)(=O)N2CCN(Cc3ccccc3)CC2)c(OC)cc1Cl	98.4
CN(Cc1ccccc1)C(=O)COC(=O)c1ccccc1O	108.0
Cc1cccc(Oc2ccc(NC(=O)C3CCC(C)CC3)cc2)c1 (stereo unspecified)	99.8
CCCCCCCCNC(C)C(O)c1ccc(SC(C)C)cc1 (stereo unspecified)	99.1
Nc1nc(NS(=O)(=O)c2ccccc2)ns1	101.9
O=S(=O)(CCN1C=CC(C(F)(F)F)=NCC1)c1ccc(F)cc1	91.4
N#Cc1cnn(-c2ccccc2)c1N	101.3
Cn1nc(C(C)(C)C)cc1C(=O)NN1CCOCC1	101.2
O=C(COc1ccccc1)Nc1ccc(I)cc1	97.9
Cc1ccc(N=Cc2ccc(F)cc2)c(C)c1	103.3
CCN1CCN(C(c2cccs2)C(C)NC(=O)C(C)C)CC1 (stereo unspecified)	104.8
C(=NCc1cccnc1)c1ccc2c(c1)OCO2	106.1
COCC(C)NCc1cccc(OC)c1 (stereo unspecified)	92.4
CC1(C)CC(=O)CC(=NCC(=O)O)C1	100.4
COc1cccc(NC(=O)CSc2nnc3ccccn23)c1	102.4
CCOC(=O)c1c(N)sc(C)c1C	99.6
Cc1c(C(=O)NCCCN2CCCCCC2)oc2ccc3nc(N(C)C)sc3c12	64.3*
Oc1oc(-c2cccs2)nc1/C=C1\C=Nc2ccccc21	99.3
CCN(CC)C(=O)CSc1nc2nc(C)cc(C)c2c(=O)[nH]1	100.4
Cc1cc2nnc(SCC(N)=O)n2c2ccccc12	97.5
OCC1CCCN1CC1CC1 (stereo unspecified)	101.9
CC(=O)Nc1ccc2nc(NC(=O)c3ccc(C#N)cc3)sc2c1	106.9
CC(C)N(Cc1ccccc1)S(=O)(=O)N(C)C	100.8
CCOC(=O)c1c(O)c(O)c(C(=O)OCC)n1-c1ccc(OC)cc1	105.3
Cc1oc(S(=O)(=O)N2CCCC2)cc1C(=O)NCCN1CCNC1=O	102.5
O=S(=O)(c1ccc(Cl)cc1)c1cnn(S(=O)(=O)c2ccccc2)c1-c1ccc(Cl)cc1	100.2
O=C(COc1ncnc2ccccc12)Nc1ccccc1	93.2
C=CCn1c(COc2ccc(OC)cc2)nc2ccccc21	99.3
O=C(COC(=O)CSc1ccc2ccccc2c1)NC1CC1	101.0
COC(=O)C1C(=O)C2=C(CC1C)Nc1ccccc1NC2c1cccc(Br)c1 (stereo unspecified)	98.0
CC(C)N(C(=O)CSCc1nc2ccccc2[nH]1)c1ccccc1	95.4
c1ccc(-c2cccc(-c3ccccn3)n2)nc1	98.6
N#Cc1c(F)cccc1NCc1cccs1	106.4
O=C1CSc2cc(S(=O)(=O)N3CCN(c4ccccc4)CC3)ccc2N1	105.7
Cc1nnsc1-c1nc2ccccc2[nH]1	98.2
CC(=O)N/C(=C\c1ccccc1)C(=O)Nc1cc(C)cc(C)c1	99.0
O=C(NCCn1cc(SCC(=O)N2CCOCC2)c2ccccc21)c1ccccc1	99.9
Cc1ccc(NC(=O)c2cnc3ccc(S(=O)(=O)N(C)C4CCCCC4)cc3c2Cl)cc1F	98.7
CCc1c(C)c(C#N)c2nc3ccccc3n2c1NCc1ccccc1	99.7
O=C(/C=C1\SC(=O)NC1=O)Nc1ccccc1	101.1
Cc1ccccc1S(=O)Cc1ccc(C(=O)N2CCCC2)o1 (stereo unspecified)	98.3
O[C@H]1[C@H]2[C@H](O)CCCN2C[C@H]1O	99.9
COc1ccc(/C=C(/NC(=O)c2ccco2)C(=O)N2CCCC2=O)cc1	101.2
COc1ccc(NC(=O)c2ccc(F)c(F)c2)c2ccccc12	99.0
CSc1nc(NS(=O)(=O)c2cc(C(F)(F)F)cc(C(F)(F)F)c2)nn1C	89.3

(list continues)
SMILES	Vaccinia pol inh
N#CC(c1ccccc1)c1ccccc1C(=O)c1ccccc1 (stereo unspecified)	99.8
O=c1oc2ccccc2c(O)c1/C=N/c1ncccn1	100.4
COc1cccc2sc(NCc3ccccc3)nc12	99.4
CCCCc1nn2c(=O)cc(O)nc2s1	99.5
CNc1ncc(C(=O)C(C)(C)C)s1	92.4
CCOC(=O)C1C(c2ccccc2)C(C(=O)OCC)C1c1ccccc1 (stereo unspecified)	96.8
CCN(CCN(C)C)C(=O)Cn1ncc2c1-c1ccccc1OC2	100.6
O=C(O)c1ccccc1OCC(=O)N1CCCC1	100.9
CC1CCCN(C(=O)CCNS(=O)(=O)c2ccc3c(c2)c(=O)n(C)c(=O)n3C)C1 (stereo unspecified)	101.5
CC(C)C(NC(=O)c1ccc(F)cc1)C(=O)Oc1ccc(F)cc1 (stereo unspecified)	102.5
Cc1ccc(NC(=O)Cn2c(C)c3cnn(-c4ccccc4)c(=O)c3c2C)cc1	106.6
CC(C)(C)C(=S)Nc1cccc(Cl)c1	98.9
C/C(O)=C/C(=O)Nc1cccc(C(F)(F)F)c1	99.7
O=C(Nc1cccc(Cl)c1)n1ncc2cc(Cl)ccc21	84.8
O=C(O)CC1(O)C(=O)N(Cc2ccccc2)c2ccccc21 (stereo unspecified)	96.6
Cc1nc2c(-c3ccccc3)nn(-c3ccccc3)c2s1	100.5
CCN(Cc1ccccc1)C(=O)N1CCOCC1	101.9
COc1ccc(CN2CCCN(Cc3ccc(OC)cc3)C2c2ccc(F)cc2)cc1	86.0
O=C(CCC(=O)N1CCCC1)Nc1nc(-c2cc3cc(Br)ccc3oc2=O)cs1	99.1
COc1ccc(OCC(=O)N(Cc2nc(-c3ccccc3)no2)C2CCCCC2)cc1	108.7
Cc1ccc(C23CC4CC(CC(CN)(C4)C2)C3)cc1C	99.9
CCCn1cc(S(=O)(=O)CC(=O)Nc2ccccc2)c2ccccc21	98.4
CC(=O)[C@H]1[C@H](C#N)CC2C3CC=C4C[C@@H](O)CCC4(C)C3CCC21C (stereo partly specified)	99.9
Cn1c(Cn2c(=O)sc3ccccc32)nnc1SC1CCCC1	98.7
Cc1ccc(-n2nnnc2-c2ccc3ccccc3n2)cc1	97.9
Cc1ccc(N2C(=O)C3SC(N)=C(C#N)C(c4ccco4)C3C2=O)cc1 (stereo unspecified)	107.1
COc1ccc(/C(C)=N/O)cc1	99.3
CN(C)CCN(Cc1ccco1)C(=O)Cn1nc(Cc2ccncc2)c2ccccc2c1=O	97.7
c1ccc2cc(OCCN3CCOCC3)ccc2c1	99.1
COc1ccc(CC2SC(=Nc3ccc(Br)cc3)NC2=O)cc1 (stereo unspecified)	97.6
CC(C)c1ccccc1NC(=O)COC(=O)COc1ccc(Cl)cc1	96.6
O=C(CCOc1ccccc1)OCCN1CCCC1=O	102.5
C=CCN1C(=O)C(C(C)CC)NC1=S (stereo unspecified)	99.8
CCc1ccc(OCC(=O)N(C)C2CCS(=O)(=O)C2)cc1 (stereo unspecified)	96.5
O=C(NC(=O)c1c(Cl)cccc1Cl)Oc1ccc(C(F)(F)F)cc1	108.1
O=C(O)Cn1c(Cc2ccccc2)nc2ccccc21	101.9
CC(C)(C)c1cc(/C=C2\SC(=S)NC2=O)cc(C(C)(C)C)c1O	97.5
CCCSc1ncnc2sc3c(c12)CCCC3	101.3
COc1c2ccoc2cc2oc(=O)ccc12	100.5
COc1cccc(NC(=S)Nc2ccccc2)c1	100.1
CCOc1ccc(CNc2ccc(N3CCN(Cc4ccccc4)CC3)cc2)cc1	100.2
CN(C1CCCCC1)S(=O)(=O)c1ccc(C(=O)Nc2ccccc2)cc1	98.1
Cc1ccc(CC2SC(N)=NC2=O)cc1Cl (stereo unspecified)	112.8
O=C(COC(=O)c1cc(-c2ccccc2)nn1-c1ccccc1)Nc1cccc(F)c1	84.6
CSc1nc2ccc(NC(=O)COc3ccccc3)cc2s1	79.2
CCOc1cc(CN2CCN(C(=O)COc3ccc(C)cc3)CC2)ccc1OC	100.1
O=C(O)C1CCCCC1C(=O)N1CCCc2ccccc21 (stereo unspecified)	98.9
CCN1CCc2c(OCc3ccc(C)cc3)cccc2C1=O	99.4
N/C(=N\S(=O)(=O)c1ccc(Br)cc1)c1ccc(Cl)cc1	91.7
CCCCCC(O)CCCC(=O)O (stereo unspecified)	100.8
CC(C)C(=O)NCc1ccc2[nH]c3c(c2c1)CCCC3	93.8
O=C(CSc1nc(-c2ccccc2)nc2c1CCCC2)N1CCOCC1	112.2
COc1ccccc1N(CN1CCCC1=O)C(=O)COc1ccccc1	102.6
COC(=O)N1N=C(CC(C)C)CC1(O)C(F)(F)F (stereo unspecified)	99.7
N#CCc1nc2sc3c(c2c(=O)[nH]1)CCCC3	101.2
CCn1cc(C(=O)NN)c(=O)c2cc(F)c(N3CCCC3)cc21	100.2
c1ccc(C2=N[C@H](c3ccccc3)[C@H](c3ccccc3)N2)cc1	88.5
O=C(CN1C(=O)N(c2ccc(Cl)cc2)S(=O)(=O)c2ccccc21)N1CCCc2ccccc21	101.6
COc1ccc2[nH]c(C)c(CCN(Cc3cccs3)C(=S)Nc3cccc(C)c3)c2c1	94.4
Cc1ccc(S(=O)(=O)NCCc2cc3ccc(C)cc3[nH]c2=O)cc1	92.3

12 compounds drawn at random from the list so far, as already listed:
SMILES	Vaccinia pol inh
CCOc1cc(CN2CCN(C(=O)COc3ccc(C)cc3)CC2)ccc1OC	100.1
N#CCc1nc2sc3c(c2c(=O)[nH]1)CCCC3	101.2
COc1ccccc1N(CN1CCCC1=O)C(=O)COc1ccccc1	102.6
Cc1ccc(S(=O)(=O)NCCc2cc3ccc(C)cc3[nH]c2=O)cc1	92.3
CCn1cc(C(=O)NN)c(=O)c2cc(F)c(N3CCCC3)cc21	100.2
CCCCCC(O)CCCC(=O)O (stereo unspecified)	100.8
CC(C)C(=O)NCc1ccc2[nH]c3c(c2c1)CCCC3	93.8
COC(=O)N1N=C(CC(C)C)CC1(O)C(F)(F)F (stereo unspecified)	99.7
c1ccc(C2=N[C@H](c3ccccc3)[C@H](c3ccccc3)N2)cc1	88.5
CCN1CCc2c(OCc3ccc(C)cc3)cccc2C1=O	99.4
O=C(CN1C(=O)N(c2ccc(Cl)cc2)S(=O)(=O)c2ccccc21)N1CCCc2ccccc21	101.6
O=C(O)C1CCCCC1C(=O)N1CCCc2ccccc21 (stereo unspecified)	98.9

More structures.
SMILES	Vaccinia pol inh
CCCn1cc(SCC(=O)Nc2nnc(SCC)s2)c2ccccc21	96.6
CC(C)(C)C1CCC(OC(=O)c2ccncc2)CC1 (stereo unspecified)	89.9
COc1ccc(OCC(=O)Sc2ccc(Cl)cc2)cc1	100.0
COc1ccc(N2C(=O)CC(C(=O)NC3CCCCC3)C2c2ccc(F)cc2)cc1 (stereo unspecified)	102.4
N#CC(C#N)(Cc1ccccc1)Cc1ccccc1	103.0
Cc1oc2cc(O)ccc2c(=O)c1-c1ccc2c(c1)OCCO2	104.1
Cc1nc(CNS(=O)(=O)c2cccs2)cs1	100.6
CC1(C)C(C=C(Cl)Cl)C1C(=O)OC(C#N)c1cccc(Oc2ccccc2)c1 (stereo unspecified)	100.8
COC(=O)C1=CN(Cc2ccc(Cl)cc2)C=C(C(=O)OC)C1c1cccc(Cl)c1	98.2
CC(CCCN1CCC2(CC1)C(=O)NCN2C)c1ccc(F)cc1 (stereo unspecified) (tested in a mixture with another compound)	90.7
CCN(CC)C(=O)c1cc(-c2ccc(Cl)c(Cl)c2)on1	98.5
CCn1c(=O)n(-c2ccccc2)c(=O)c2c3c(sc21)CN(C(C)=O)CC3	107.0
COC(=O)c1cccc2c(N=O)c(O)[nH]c12	99.3
Cc1ccc(OCc2n[nH]c(=S)n2C2CCCCC2)c2c1CCC2	102.0
O=C(Nc1ccccc1-c1nc2ccccc2o1)c1cccs1	101.0
CCN(Cc1ccccc1)C(=O)Nc1cn(C)c(=O)c2ccccc12	97.1
COc1cc(OC)nc(NC2OC(=O)c3ccccc32)n1 (stereo unspecified)	98.2
CN1CCN(Cc2ccc(O)c3ncccc23)CC1	103.3
Cc1cccc(C(=O)Oc2ccc(C)c(C)c2)c1	100.0
CCc1cccc(NS(=O)(=O)c2ccc3c(c2)CCC(=O)N3)c1	97.4
O=C1NN=C(c2ccccc2)CC1c1c[nH]c2ccccc12 (stereo unspecified)	99.9
COc1ccc2c(CNCC3CCCO3)c(C(=O)O)n(Cc3ccc(C)cc3)c2c1 (stereo unspecified)	91.7
COc1ccc(-c2nc3cc4c(cc3o2)Oc2ccccc2N4)cc1	93.2
O=C(Cn1nc(Cc2ccncc2)c2ccccc2c1=O)NCCCN1CCCCC1	100.3
Cc1onc(C(=O)NN)c1-c1csc(COc2ccc(Cl)cc2)n1	97.7
O=C1/C(=C\c2ccccc2)SC(=S)N1CNc1ccccc1	93.5
COc1ccccc1N=c1oc2ccc(Cl)cc2cc1C(N)=O	94.0
CCC(C)NC(=O)c1ccc(CS(=O)Cc2ccc(C)cc2)o1 (stereo unspecified)	107.2
Cc1ccc(C(=O)N2CCN(C(=O)c3ccc(C)c(C)c3)C(C)C2)cc1C (stereo unspecified)	97.4

Screening results from PubChem.
